High-throughput results as filed in PubChem.
LANA-H2B inh: blocks KSHV LANA binding to histone H2A/H2B; Q9QR71; inhibition, % (test concentration not listed); 320,000 tested, 0.6% active; cell-free LANA-H2A/H2B peptide, fluorescence polarization; in the data active = inhibition mostly above about 10%, no sharp cut-off; inactive = mostly below about 6.7%;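 also: stock transfer was 7.5 nL into about 10 µL; 0% = median of vehicle wells and 100% = median of positive control wells; one replicate is shown; the record names a cut of 25% in any replicate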
B2AR ag: agonists of human beta-2 adrenergic receptor inducing internalization. 340,000 tested, 0.43% active. P07550. response, % (test concentration not listed). Am2.2-beta2AR cells, FAP receptor internalization, flow cytometry; reference of the scale not given here;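 active = response above a set limit, near 3 SD of response in nonfluorescent compounds, cut at about 42% in these data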;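 also: stock transfer was 100 nL into about 11 µL; a reference agonist was the positive control; negative values mostly stem from fluorescent compounds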
Target sequence (P07550 whole entry, looked up): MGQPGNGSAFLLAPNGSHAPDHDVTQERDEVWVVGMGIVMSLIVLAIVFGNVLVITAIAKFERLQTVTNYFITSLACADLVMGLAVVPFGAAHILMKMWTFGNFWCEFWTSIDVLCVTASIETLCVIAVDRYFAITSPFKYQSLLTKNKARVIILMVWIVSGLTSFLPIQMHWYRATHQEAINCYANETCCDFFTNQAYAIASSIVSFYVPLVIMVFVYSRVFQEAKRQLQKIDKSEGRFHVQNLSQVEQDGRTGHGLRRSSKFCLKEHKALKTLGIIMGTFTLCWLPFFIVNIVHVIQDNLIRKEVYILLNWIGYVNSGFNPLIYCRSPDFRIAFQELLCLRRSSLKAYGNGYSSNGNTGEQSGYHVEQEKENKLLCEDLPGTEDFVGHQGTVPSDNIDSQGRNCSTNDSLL
UCH37 inh: human UCH37 deubiquitinating enzyme inhibition. Q9Y5K5. purified proteasome/UCH37, Ub-AMC cleavage fluorescence. inhibition, % (test concentration not listed). 330,000 tested, 0.33% active. AID 588478;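 active = mean of two replicates above 20%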;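 also: 0% = compound-free wells with enzyme and 100% = wells lacking proteasome; stock transfer was 100 nL into about 20 µL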
Target sequence (Q9Y5K5 whole entry, looked up): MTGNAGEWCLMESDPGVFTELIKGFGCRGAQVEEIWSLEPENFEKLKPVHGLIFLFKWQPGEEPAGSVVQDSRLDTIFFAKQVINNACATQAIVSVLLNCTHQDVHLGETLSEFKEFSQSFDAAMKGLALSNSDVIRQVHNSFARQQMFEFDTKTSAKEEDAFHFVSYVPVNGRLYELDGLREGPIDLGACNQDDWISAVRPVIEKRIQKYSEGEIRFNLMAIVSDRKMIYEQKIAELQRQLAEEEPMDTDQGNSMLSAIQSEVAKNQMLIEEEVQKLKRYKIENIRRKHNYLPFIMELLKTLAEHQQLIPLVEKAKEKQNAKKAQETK
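Material: human UCH37 enzyme supplied as purified proteasome complex. Measure: % inhibition of Ub-AMC cleavage fluorescence. Medium: pH 7.4 Tris-HCl (50 mM) with ovalbumin, ATP-MgCl2, DTT. Times: 30 min preincubation with enzyme, 25 min cleavage at room temperature. Detection: AMC fluorescence intensity at 355/460 nm.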
ALR H2O2 inh: human ALR oxidase inhibition via reduced H2O2; P55789; purified ALR, DTT oxidation, H2O2 HRP-luminol luminescence; inhibition, % (test concentration not listed); 290,000 tested, 3.8% active;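 active = mean and each replicate at 75% or more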;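 also: stock transfer was 7.5 nL into about 7.5 µL; 0% = neutral wells and 100% = wells with inactivated enzyme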
HNF4A DNA FP: change in binding of human HNF4 alpha to DNA; HNF4a-FITC DNA binding, fluorescence polarization, 1 h; 360,000 tested, 0.3% active; activity change, % at 10 µM; P41235; in the data active = activity change above about 30%, passing the limit was not always enough;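 also: controls were the assay level and a saturating level of protein; the project sought stronger binding though the title names inhibitors; some compounds called inactive have numbers as strong as hits; positive values seem to mean higher polarization but the record does not say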
E coli growth: inhibitors of Escherichia coli growth. OD600, 23 h; stronger effect = lower value. OD600 absorbance (test concentration not listed). 330,000 tested, 0.21% active. AID 1053175;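 active = OD600 absorbance below the run mean of sample wells minus 3.6 SD, in any replicate, cut at about 0.56 in these data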;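 also: stock transfer was 300 nL into about 60 µL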
FGF22 binding: binders of recombinant human FGF22 by thermal shift. Q9HCT0. SYPRO orange fluorescence; percent of sucrose octasulfate shift, DMSO zero. calls only at 9.99 µM. 340,000 tested, 1.5% active;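 active = melting point raised past a set limit in the mean and every replicate; three in four hits are not shown here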
Target sequence (Q9HCT0 whole entry, looked up): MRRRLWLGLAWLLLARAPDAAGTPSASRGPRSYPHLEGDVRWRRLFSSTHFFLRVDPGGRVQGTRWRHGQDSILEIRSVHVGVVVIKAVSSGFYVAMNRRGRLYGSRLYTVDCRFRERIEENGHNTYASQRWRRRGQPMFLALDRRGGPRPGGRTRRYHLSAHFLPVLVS
Starred values were filed as active, the others as inactive; i = inactive; . = no result given. Only part of the results is shown. The share of hits here may be higher or lower than overall.

SMILES	LANA-H2B inh	B2AR ag	UCH37 inh	ALR H2O2 inh	HNF4A DNA FP	E coli growth	FGF22 binding
COc1ccc(/C=C/C(=O)NCc2c(C)nn(C)c2C)cc1COc1ccc(Br)cc1	1.1	1	0.2	-14	-1.2	0.61	.
COc1ccccc1NC(=O)Cc1nn(C)c(=O)c2ccccc12	-1.3	2	0.8	-16	-0.6	0.71	.
CC(C)c1ccc(/C=C2\SC(=S)N(CCC(=O)NCCCn3ccnc3)C2=O)cc1	-0.8	8	4.4	-4	-0.4	0.68	i
COc1ccc(NC(=O)c2ccc(-c3ccc(C)c4ccccc34)o2)cc1	-4.2	-6	-0.3	.	0.7	0.67	i
COc1ccc(C(=O)N/C(=C\c2cn(C)c3ccccc23)C(=O)NCCCN2CCOCC2)cc1	5.7	7	15	22	3.3	0.67	i
COc1ccc(CC(=O)Nc2cc(S(=O)(=O)N3CCCCC3)ccc2N2CCN(C)CC2)cc1	-1.7	1	3.1	49	-2.5	0.7	i
O=C(NC1CCN(S(=O)(=O)c2ccccc2)CC1)c1ccc(F)cc1	-2.4	5	1.7	-1	-0.8	0.69	i
CN1CCN(NC(=O)c2ccc(Cl)c([N+](=O)[O-])c2)CC1	2.9	-3	3.8	51	0.3	0.8	.
CCCN(C(=O)COC(=O)Cn1c(=O)oc2ccccc21)c1c(N)n(Cc2ccccc2)c(=O)[nH]c1=O	1.5	-2	4.5	-3	2.7	0.68	i
Cc1ccc(C(=O)OCC(=O)NCC(F)(F)F)cc1C	0.6	-4	4.7	1	1.6	0.68	i
CCOc1cccc(CNCCO)c1OCc1ccc(Cl)cc1Cl	3.8	18	4.7	-7	0.8	0.62	i
O=C(COC(=O)/C=C/c1cccc([N+](=O)[O-])c1)NCc1ccco1	-0.7	8	.	-23	-1.1	.	i
COc1ccccc1C(=O)NCCC(=O)Nc1ncccc1C	1.6	0	1.1	0	0.5	0.69	i
CC(=O)NC(=S)Nc1ccccc1F	10	1	1.7	0	-0.7	0.69	i
Cc1ccc(C)c(S(=O)(=O)Nc2ccc(C(N)=O)cc2)c1	1.5	2	0.9	-6	-0.3	0.6	i
Cc1nnc(NC(=O)CCSc2ccc(Cl)cc2)s1	-2.4	2	0.5	-4	-1.9	0.69	i
CCN(CC)CCCNC(=O)c1cc2c(-c3ccc(Cl)cc3)nn(C)c2s1	-4.8	9	-151	94*	-2.4	0.76	i
CCSc1nnc(SCC(=O)N2CCN(C(=O)c3ccco3)CC2)s1	-1.2	-2	1.3	0	-4.8	0.69	i
CC(=O)Nc1ccc(NC(=O)CN2CCN(c3ccccn3)CC2)cc1	0.3	-17	4.3	.	4.4	0.63	i
O=C(C1CCCO1)N1CCN(C(=S)NC2CC2)CC1 (centres undefined)	6.1	2	-2.7	-4	-3.3	0.66	i
COc1cc(C2(c3ccc(O)c(OC)c3)C(=O)N(C)c3ccc(C)cc32)ccc1O	0.8	-1	2.2	67	3.1	0.68	i
Cc1cccc(C)c1NC(=O)C1NC(=O)CC1c1ccccc1 (centres undefined)	1.2	7	4.0	-9	2.5	0.73	i
CCn1cc(C2N3CC4(C)CN2CC(C)(C3)C4=O)c2ccccc21 (centres undefined)	5.7	11	0.6	7	-0.9	0.64	i
COc1ccc(Cl)cc1NC(=S)N1CCCC1	2.4	0	-3.3	-21	3.1	0.7	i
CN1CCN(CCP(=O)(c2ccccc2)c2ccccc2)CC1	-0.5	1	2.0	-11	3.2	0.76	.
CCn1cc(C(=O)NC2CCCCC2)c(=O)c2cc(S(=O)(=O)N(C)C)ccc21	-0.9	-26	4.2	-3	1.1	0.72	i
COc1cccc(CSc2nc3ccccc3[nH]2)c1	-0.7	-14	3.5	-10	32*	0.63	i
Cc1ccc(C(=O)NC(Cc2cccc(F)c2)C(=O)O)cc1 (centres undefined)	.	1	2.3	.	1.2	0.7	i
O=C(Nc1ccon1)c1cccc(S(=O)(=O)N2CCCC2)c1	0.9	-15	-0.5	-8	-2.5	0.67	.
CC(C#N)(NC(=O)CN1CCN(S(=O)(=O)c2ccccc2Cl)CC1)C1CC1 (centres undefined)	-441	-6	2.9	-4	2.1	0.69	i
CCOc1ccc(NC(=O)CSc2nc3cccnc3n2CCOC)cc1	-0.3	-17	3.3	.	-1.1	0.72	.
CCOC(=O)N1CCC(NC(=O)C2CCN(C(=O)N3CCOc4ccccc43)CC2)CC1	0.0	-1	2.0	-4	0.7	0.69	.
Cc1ccc(NC2=NCCCCC2)cc1C	-0.3	-1	1.8	-4	-1.8	0.69	.
N#Cc1ccc(CN2C=NS(=O)(=O)c3ccccc32)cc1	-1.6	-1	3.6	-3	1.9	0.67	i
CCCCOP(=O)(c1ccc(N(C)C)cc1)C(O)c1cc(OC)ccc1OC (centres undefined)	-8.3	-5	4.6	.	1.0	0.68	i
CCCC1(c2ccccc2)NC(=O)N(CC(=O)Nc2cc(C)on2)C1=O (centres undefined)	7.0	1	-0.6	-4	3.3	0.67	i
COC(=O)c1cn(CC(=O)Nc2ccc(F)cc2)c2ccccc12	12*	0	.	15	2.4	.	i
CCC(C(=O)N1CCN(C(=O)c2ccco2)CC1)n1sc2ccccc2c1=O (centres undefined)	6.8	-8	1.0	2	0.4	0.68	i
CNc1cc(C)nc(N2CCOCC2)n1	-1.1	1	2.2	.	2.2	0.63	i
COc1cc(Cl)ccc1OCc1cc(C(=O)N2CC[C@@H]3CCCC[C@H]3C2)no1	-1.2	-3	-2.3	0	5.2	0.65	i
Cn1cccc1CC(=O)NNC(=S)Nc1ccc(Cl)cc1Cl	3.3	-8	0.5	.	0.5	0.71	.
C=CC(=O)N1c2ccccc2Sc2ccc(NC(=O)OCC)cc21	-1.8	6	3.9	25	-1.8	0.71	.
CN(Cc1ccc(F)cc1)C(=O)c1ccc(NS(=O)(=O)c2ccccc2)cc1	0.8	2	3.9	3	0.6	0.71	.
Cc1ccc(S(=O)(=O)CCC(=O)Nc2ccccc2N2CCCC2)cc1	-4.3	0	-1.0	99*	0.6	0.62	i
CCCCOCC1CC(CC#CCN2CCCCC2)C(=O)O1 (centres undefined)	.	0	3.0	.	-1.1	0.66	.
O=c1oc2cc(O)c(Cl)cc2c2ccccc12	3.4	1	-0.9	49	-2.4	0.63	.
Cc1ccc2c(c1)N(CC(=O)NCC1CCCO1)C(=O)C(C)O2 (centres undefined)	1.5	6	2.6	.	-0.1	0.72	.
O=C(c1cccc(F)c1)N1CCN(C(=O)C(c2ccccc2)c2ccccc2)CC1	-2.0	14	2.2	-11	0.5	0.66	i
CCCCN(C(=O)c1cc(Cl)nc2ccccc12)c1c(N)n(CCCC)c(=O)[nH]c1=O	-2.6	-9	-4.1	0	-0.3	0.64	.
CCOC(=O)c1sc(NC(=O)C2CC(=O)N(c3ccccc3C)C2)nc1C (centres undefined)	5.5	-9	-0.2	.	1.8	0.68	i
O=C1NC(=O)N(Cc2ccccc2)CC1Br (centres undefined)	.	1	2.6	.	-4.2	0.7	i
CN(CC(=O)Nc1ccc(F)cc1)C(=O)Cn1nnc(-c2ccccc2)n1	0.0	5	5.1	-4	3.3	0.7	i
C=CCOc1c(Cl)cc(/C=N/O)cc1OC	1.5	5	.	0	1.1	.	i
O=S(=O)(c1cccc(C(F)(F)F)c1)c1ccc(O)cn1	1.4	-10	2.2	-1	-1.1	0.7	i
Cc1ccc(NC(=O)c2cccc3cccnc23)cc1	-12	-4	6.4	1	4.0	0.64	i
N/C(=N/OS(=O)(=O)c1ccc([N+](=O)[O-])cc1)c1ccncc1	37*	-5	.	-56	-0.4	.	i
CS(=O)(=O)N1N=C(c2cccs2)CC1c1ccccc1O (centres undefined)	0.2	0	-0.6	14	4.7	0.68	.
O=C(NCc1ccccn1)Nc1ccccc1C(F)(F)F	0.5	1	0.4	-3	3.5	0.67	i
COc1ccc(-c2cc3nc(C)cc(N4CC(C)CC(C)C4)n3n2)cc1 (centres undefined)	4.9	0	-62	-3	11	0.73	.
COc1ccccc1N(CC(=O)N1CCOCC1)S(C)(=O)=O	2.3	2	1.7	-4	-0.4	0.61	i
Remaining list, next part:
SMILES	LANA-H2B inh	B2AR ag	UCH37 inh	ALR H2O2 inh	HNF4A DNA FP	E coli growth	FGF22 binding
CCN(CC)C(=O)Nc1ccc(C(=O)OC)cc1	-4.2	-6	2.4	-3	1.7	0.73	.
Nc1cc(N)nc(SCC(=O)NCc2ccc3c(c2)OCO3)n1	0.0	-4	1.4	-5	1.0	0.71	i
Cc1ccc(CNC(=O)C(OC(=O)c2ccco2)C(C)C)cc1 (centres undefined)	2.6	5	-1.5	0	6.9	0.7	.
CC(C)(C)NC(=O)Cn1c(SCC(=O)NC2CCCC2)nc2ccccc21	-4.0	-11	4.0	-12	4.0	0.71	i
O=C(O)c1cc(NC(=O)C2CCCO2)cc(NC(=O)C2CCCO2)c1 (centres undefined)	-4.1	4	4.4	-9	-1.2	0.66	i
O=C(N/C(=C/c1cccc([N+](=O)[O-])c1)C(=O)N1CCOCC1)c1ccccc1Br	3.9	2	5.1	-12	-0.6	0.72	i
COC(=O)C1=C(C(=O)OC)[C@@H]2N(C)c3ccc(OC)cc3[C@@]23C[C@@H](C(=O)OC)N(C(=O)c2ccco2)C3=N1	1.1	4	0.7	61	-7.2	.	i
CC1=C(C(=O)O)N2C(=O)C(NC(=O)c3c(F)cccc3F)C2SC1 (centres undefined)	.	3	-2.2	.	-2.2	0.68	i
O=C(NC(Cc1c[nH]c2ccccc12)C(=O)O)/C(=C/c1ccco1)NC(=O)c1ccccc1 (centres undefined)	1.3	-3	9.6	-10	0.4	.	i
O=C(CN1CCN(S(=O)(=O)c2ccc(Br)cc2)CC1)N/N=C/c1cc([N+](=O)[O-])ccc1Cl	-0.4	-10	.	-15	6.4	.	.
CCOC(=O)c1c(NC(=O)Cn2nnc(-c3ccc(Cl)cc3)n2)sc(CC)c1C	-0.7	-2	4.7	0	0.5	0.74	.
C[C@@H](C(=O)NC1CCN(Cc2ccccc2)CC1)N1C(=O)N2CCc3c([nH]c4ccccc34)[C@@]2(C)C1=O	5.2	4	-0.4	2	4.9	0.69	i
CC(=O)c1cccc(NC(=O)CN2C(=O)C(=O)N(Cc3ccco3)C2=O)c1	-3.8	-10	0.2	0	-3.5	0.71	i
CCCN(CC1CC1)C(=O)COC(=O)c1ccc2c(c1)C(=O)N(c1ccc(OCC)cc1)C2=O	0.4	-6	.	-3	1.4	.	i
O=c1cc(O)c2sc3nc(-c4ccccc4)cc(C(F)(F)F)c3c2[nH]1	-0.2	-6	-16	61	6.4	0.66	.
Cc1nc2sc(C(c3ccccc3)N3CCOCC3)c(O)n2n1 (centres undefined)	1.7	2	-0.3	0	-2.0	0.68	i
CCOC(=O)c1ccc(NC(=O)COC(=O)c2cccc(Oc3ccccc3)c2)cc1	-0.3	0	1.0	.	-0.5	0.74	i
Cc1nn(Cc2cccc(C(=O)Nc3ccn(Cc4c(F)c(F)cc(F)c4F)n3)c2)c(C)c1[N+](=O)[O-]	1.3	-8	3.9	-13	8.2	0.72	.

In a second layout: 6 of the compounds above.
Values in the order: LANA-H2B inh	B2AR ag	UCH37 inh	ALR H2O2 inh	HNF4A DNA FP	E coli growth	FGF22 binding
- CCC(C(=O)N1CCN(C(=O)c2ccco2)CC1)n1sc2ccccc2c1=O (centres undefined)
    6.8	-8	1.0	2	0.4	0.68	i
- O=C(N/C(=C/c1cccc([N+](=O)[O-])c1)C(=O)N1CCOCC1)c1ccccc1Br
    3.9	2	5.1	-12	-0.6	0.72	i
- CCOC(=O)c1sc(NC(=O)C2CC(=O)N(c3ccccc3C)C2)nc1C (centres undefined)
    5.5	-9	-0.2	.	1.8	0.68	i
- O=C(c1cccc(F)c1)N1CCN(C(=O)C(c2ccccc2)c2ccccc2)CC1
    -2.0	14	2.2	-11	0.5	0.66	i
- O=C(C1CCCO1)N1CCN(C(=S)NC2CC2)CC1 (centres undefined)
    6.1	2	-2.7	-4	-3.3	0.66	i
- CCCN(C(=O)COC(=O)Cn1c(=O)oc2ccccc21)c1c(N)n(Cc2ccccc2)c(=O)[nH]c1=O
    1.5	-2	4.5	-3	2.7	0.68	i
